Screening results (PubChem BioAssay)
StopGo FLuc = FMDV 2A StopGo reporter, firefly signal. HEK cells with a luciferase reporter of 2A StopGo recoding. Potency, µM (highest dose often 57.5 µM), for inactives: at the highest dose signal change, negative = less light. 0.23% of 120,000 active. AID 1745856; active = well fitted falling curve with a large enough effect; inconclusive = small, poorly fitted or top-dose-only effect; inactive = no such curve, though single readings can be large or run the other way; further: nearly all actives have a fitted effect of over 60% in size; overnight with compound
StopGo RLuc = lowers the Renilla signal of an FMDV 2A StopGo reporter. Potency, µM (highest dose often 57.5 µM), inactives show top-dose signal change, negative = less light. AID 1745857. 0.32% of 120,000 active. HEK cells with a luciferase reporter of 2A StopGo recoding; active means well fitted falling curve with a large enough effect; inconclusive means small, poorly fitted or top-dose-only effect; inactive means no such curve, though single readings can be large or run the other way; further: nearly all actives have a fitted effect of over 55% in size; overnight with compound
* marks the source's active call; other numbers are inactive results; ? = inconclusive; & = joins results of further samples; [ ] = dose if it differs, or a comment. On the % scale 0 is the no-effect control and ±100 the full control effect; potency means the concentration at half of the fitted maximal effect. These rows are one share of the data; the hit share may differ from the screen's.

SMILES	StopGo FLuc	StopGo RLuc
CCOCCOC(=O)c1ccc(NC(=O)/C=C/c2ccc(OC)c(OC)c2)cc1	-19%	-3%
CN(Cc1cnn(C)c1)C(=O)c1cc(-c2ccccc2)nc2ccccc12	11%	113%[activator]
Cc1ccc(CN(C(=O)COc2ccc(Cl)cc2)c2ccccn2)o1	144%[activator]	63%[activator]
O=C(Cc1c[nH]c2ccccc12)N1CCN(Cc2ccccc2)CC1	19%	0%
C=CCOc1ccc(Cl)cc1CNCc1ccccc1	43%[activator]	17%
Cc1ccc(NC(=O)c2nc3ccccc3nc2N2CCN(C)CC2)c(C)c1	-16%	-31%
Cc1cc(C)c(NC(=O)CCc2ccco2)c(Cl)c1	0%	23%
C=CCNC(=O)NC(=O)CN1CCc2ccccc2C1	32%	19%

One compound at a time (already shown). Values in the order: StopGo FLuc | StopGo RLuc
`C=CCOc1ccc(Cl)cc1CNCc1ccccc1` across the screens: 43%[activator] | 17%
`CN(Cc1cnn(C)c1)C(=O)c1cc(-c2ccccc2)nc2ccccc12` across the screens: 11% | 113%[activator]

Following part:
SMILES	StopGo FLuc	StopGo RLuc
CC(=O)N(C1=C(C#N)C(=O)CC(C)(C)C1)c1ccccc1	5%	6%
COc1ccc(C2NC(=O)N(C)C3=C2C(=O)N(c2cccc(C(=O)O)c2)C3)cc1 (centres undefined)	12%	-7%
CCOc1ccccc1C(=O)NCc1nc2cccnc2n1Cc1ccc(C)cc1	4%	-8%
COc1ccc(CNC(=O)C2CCCN(C(=O)c3cnn(-c4ccc(F)cc4)c3-n3cccc3)C2)cc1 (centres undefined)	19%	0%
Cc1c(C(=O)N(C)c2ccccc2)nnn1-c1ccc(F)cc1	54%[activator]	5%
CCCCCOc1ccc2c(C)c(CCC(C)C)c(=O)oc2c1	0%	4%
CCN(C(=O)C(=O)c1c(C)n(C)c2ccccc12)c1ccccc1	4%	26%
N#C/C(=C\c1ccc(F)cc1)C(=O)NCC1CCCO1 (centres undefined)	-14%	-7%

Entries shown so far containing a halogen (six):
SMILES	StopGo FLuc	StopGo RLuc
Cc1ccc(CN(C(=O)COc2ccc(Cl)cc2)c2ccccn2)o1	144%[activator]	63%[activator]
C=CCOc1ccc(Cl)cc1CNCc1ccccc1	43%[activator]	17%
Cc1cc(C)c(NC(=O)CCc2ccco2)c(Cl)c1	0%	23%
COc1ccc(CNC(=O)C2CCCN(C(=O)c3cnn(-c4ccc(F)cc4)c3-n3cccc3)C2)cc1 (centres undefined)	19%	0%
Cc1c(C(=O)N(C)c2ccccc2)nnn1-c1ccc(F)cc1	54%[activator]	5%
N#C/C(=C\c1ccc(F)cc1)C(=O)NCC1CCCO1 (centres undefined)	-14%	-7%

Other structures:
SMILES	StopGo FLuc	StopGo RLuc
CC1CCC(NC(=O)C(C)Cl)CC1 (centres undefined)	-10%	-5%
Cc1cc(C)c(S(=O)(=O)NCCc2csc3nc(-c4ccc(Cl)cc4)nn23)c(C)c1	?	69%[activator]
CC1(C)CC(=O)C(C=Nc2ccccc2)C(=O)C1	13%	-2%
COc1cc(CCC(=O)NCc2ccc3c(c2)CCN3C(=O)c2cccc(C)c2)cc(OC)c1OC	-19%	324%[activator]
Cc1cc(=O)n2nc(N3CCC(C(=O)NCc4ccccc4)CC3)sc2n1	-10%	-13%
CCOC(=O)CSc1ncnc2c1c(-c1ccccc1)cn2-c1ccc(OC)cc1	-19%	-9%
CCc1nnc(NC(=O)C2(c3cccc(F)c3)CCCC2)s1	6%	1%
C=CCOC(=O)C(C#N)c1nc2ccccc2nc1N1CCN(C(c2ccccc2)c2ccccc2)CC1 (centres undefined)	-3%	5%
CCOC(=O)N1CCN(Cc2cc(=O)oc3cc(O)c(Cl)cc23)CC1	7%&-3%	-4%&3%
CCOC(=O)c1ccc(N2C(=O)c3[nH]nc(-c4ccc(OCC)cc4)c3C2c2ccc(OC)cc2OC)cc1 (centres undefined)	7%	1%
COc1ccc(CNC(=O)CCC(=O)N2CCSc3ccccc32)cc1	-10%	-13%
O=C(COc1cc(O)c2c(=O)cc(-c3ccccc3)oc2c1)Nc1ccc(O)cc1	19%	-6%
O=C(Nc1ccccc1C(=O)NC1CCCC1)c1cnc2ccccc2n1	158%[activator]	-2%
CSC1=N/C(=C\c2cccc(Br)c2)C(=O)S1	13%	10%
COc1ccc(-c2cc(C(=O)NCCc3ccc(OC)c(OC)c3)c3ccccc3n2)cc1	0%	14%
COCCN1CCN(Cc2ccc(C#N)cc2)CC1	8%	9%
CCn1nc(C(=O)OCC(=O)N2CCCC2)c2ccccc2c1=O	0%	22%
COc1ccc(/C=C2\Oc3c(ccc(OS(C)(=O)=O)c3C)C2=O)cc1	0%	13%
COc1ccc(-c2cc(C)no2)cc1S(=O)(=O)NCc1ccco1	25%	-13%
CC(C)c1ccc(/C=N/NC(=O)Cc2ccccc2)cc1	18%	21%
Cn1c(CN2CCOCC2)nnc1SCc1ccccc1Cl	-4%	8%
CC(=O)N(c1nc(C)c(C(=O)Nc2ccc3[nH]ccc3c2)s1)C1CC1	128%[activator]	18%
O=C(CSc1nc(-c2cccc(F)c2)[nH]c1-c1ccccc1)Nc1ccc2c(c1)OCCO2	?	-4%
Cc1ccc(NC(=O)CN(C)S(=O)(=O)c2cnc[nH]2)cc1	3%	-6%
CCN(CC)c1ccc(NC(=S)NC(C)C)cc1	0%	13%
O=C(c1cc2ccccc2oc1=O)N1CCN(c2ccccc2)CC1	44%[activator]	-15%
Cc1ccc(S(=O)(=O)Nc2cccc3cccnc23)c(C)c1	?	?
CC(=O)c1ccc(NC(=O)c2ccc(-c3ccc(Cl)cc3)o2)cc1	178%[activator]	-5%
CC(C)(C)NCc1ccc2c(c1)OCO2	-7%	-12%
CNc1oc(-c2ccc(Cl)cc2)nc1S(=O)(=O)c1ccc2c(c1)OCCO2	-5%	86%[activator]
Cn1cnc2c1c(=O)n(CC(=O)NC13CC4CC(CC(C4)C1)C3)c(=O)n2C	8%	0%
CC(CNC(=O)c1nnc(Cc2cccc(F)c2)o1)c1ccccc1 (centres undefined)	8%	-7%

Continuation:
Below each SMILES – StopGo FLuc | StopGo RLuc
- O=C(NC1CCCCC1)c1ccc(NC(=O)C2CC2)cc1
    15% | 12%
- O=C(Cn1ncc2c3ccccc3n(Cc3ccc(F)cc3)c2c1=O)NCCC1=CCCCC1
    -6% | -14%
- COc1ccc(N2C(=O)NC(NS(=O)(=O)c3ccc(NC(C)=O)cc3)(C(F)(F)F)C2=O)cc1 (centres undefined)
    -17% | -16%
- CCC(Oc1ccccc1Cl)C(=O)O (centres undefined)
    -4% | -7%
- CSc1ccccc1NC(=O)C(C)OC(=O)C1CCCC1 (centres undefined)
    29% | 5%
- CCN(C(=O)Cn1nnc2sc3c(c2c1=O)CCC(C(C)(C)C)C3)c1cccc(C)c1 (centres undefined)
    -19% | -8%
- Cc1ccc(Nc2ccc3nonc3c2[N+](=O)[O-])cc1Cl
    -9% | -6%
- COc1ccccc1N1CCN(C(=O)Cn2c(=O)n3nc(-c4cccc(F)c4)nc3c3ccccc32)CC1
    0% | 18%
- Cc1cccc(-c2cc(C(=O)NC3CCCC3)c3ccccc3n2)c1
    39%[activator] | 52%[activator]
- O=C(/C=C/c1ccc(-c2ccc(Cl)cc2Cl)o1)c1ccc(F)cc1
    -2% | -6%
- CC(=O)N1CCc2c(sc3c2c(=O)n(CCc2ccccc2)c(=O)n3Cc2ccc(Cl)cc2)C1
    -6% | -15%
- Cc1ccc(S(=O)Cc2nc(-c3ccc(C(=O)NC(C)c4ccccc4)cc3)oc2C)cc1 (centres undefined)
    -17% | 57%[activator]
- CNC(=O)NCc1cccc(Oc2ccccc2)c1
    0% | 13%
- COC(=O)c1cccc(NC(=O)CC2Sc3ccccc3NC2=O)c1 (centres undefined)
    112%[activator] | 162%[activator]
- CC(C)(C)C(=O)COC(=O)c1ccccc1SCC(=O)NCC1CCCCC1
    ? | ?
- CCNc1nc(-c2ccc(Br)cc2)cs1
    189%[activator] | 6%
- CC(Oc1cc2oc(=O)cc(-c3ccccc3)c2cc1Cl)C(=O)NCc1ccccn1 (centres undefined)
    -6% | -3%
- Cc1ccc(CN2CCSc3ccc(C(=O)Nc4ccc(F)cc4F)cc32)cc1
    101%[activator] | 63%[activator]
- CN(Cc1ccccc1)C(=O)c1nc(-c2ccc(Cl)cc2)n2c1CCCCC2
    -16% | 14%
- CCOc1ccccc1NC(=O)CCc1ccc(-c2ccc(C)c(C)c2)o1
    0% | 18%
- CCCNC(=O)c1ccc(COc2cccc3c2OC(C)(C)C3)cc1
    ? | ?
- Cc1ccsc1CNC(=O)c1nccnc1N
    -2% | -5%
- CCCCN(C)CCNC(=O)c1c(C)oc2ncnc(N3CCOCC3)c12
    -6% | 9%
- O=C(/C=C/Nc1ccc(Cl)cc1C(F)(F)F)c1ccc(Br)cc1
    0% | 4%
- N#CC1=C(N)Oc2c(oc(CO)cc2=O)C1c1cccc(C(F)(F)F)c1 (centres undefined)
    -16% | -8%
- COc1cccc(NC(=O)N(Cc2c[nH]c3ccccc23)C2CCCCC2)c1
    34%[activator] | 0%
- CCCCN(C)C(=O)c1ccc2nc(C)c(C)nc2c1
    38%[activator] | 4%
- Cc1cc(C)cc(NC(=O)CSc2nnc(-c3cccs3)n2-n2cccc2)c1
    -2% | -9%
- Cc1ccc(CCNC(=O)c2cccc(Nc3nc4ccccc4nc3-n3nc(C)cc3C)c2)cc1
    -7% | -10%
- CC(=O)NNC(=O)CC1Sc2ccccc2NC1=O (centres undefined)
    19% | -10%
- Cc1oc(-c2ccccc2)nc1CC(=O)NCCN1CCOCC1
    0% | 4%
- CCN(CC)S(=O)(=O)c1ccc(S(=O)(=O)Nc2ccc(C(C)C)cc2)cc1
    ? | 27%
- C[N+](C)(C)CC(O)CC(=O)[O-] (centres undefined)
    -16% | -20%
- CC(=O)c1cc(-c2ccccc2)n(CCC(=O)NCCc2ccccc2)c1C
    16% | 16%
- O=C(CSc1cnc2cc(S(=O)(=O)N3CCCCC3)ccc2n1)Nc1ccccc1
    0% | 14%
- CCc1ccc(-n2nc3cc(C)c(NC(=O)c4cccc5ccccc45)cc3n2)cc1
    10% | 5%
- N#C/C(C(=O)COC(=O)c1ccc(-c2ccccc2)cc1)=C(/c1ccc(F)cc1)N1CCOCC1
    13% | -4%[1.06 µM]
- COc1ccc(-n2ccn(CC(=O)Nc3ccc4c(c3)OCO4)c2=O)cc1
    16% | -11%
- O=C(NCCc1ccncc1)c1ccccc1Br
    0% | -3%
- CCOc1ccccc1CNC(=O)c1ccc(CS(=O)Cc2cccc(Cl)c2)o1 (centres undefined)
    -10% | 84%[activator]
- O=C(c1cccs1)N(Cc1ccco1)C1CC1
    11% | -5%
- COc1ccc(-c2nc3cc(NC(=O)COc4ccc(C)cc4)ccc3o2)cc1
    65%[activator] | -2%
- COc1ccc(C2SCCN2S(=O)(=O)c2cccc(C)c2)cc1Br (centres undefined)
    -14% | 15%
- COc1ccc(-n2nnnc2C2CCN(S(=O)(=O)c3ccc(C(C)(C)C)cc3)CC2)cc1
    -11% | -8%
- COc1ccccc1CNC(=O)C(C)(C)c1ccccc1
    56%[activator] | 59%[activator]
- O=C(Cc1csc(-c2ccco2)n1)Nc1ccnn1Cc1c(Cl)cccc1Cl
    0% | 27%
- Cc1csc(NC(=O)CCc2ncc(-c3ccccc3F)o2)n1
    140%[activator] | 9%
- COC(=O)c1cc(C(C)C)sc1NC(=O)Cc1c(Cl)cccc1Cl
    12% | 16%
- CC(C(=O)c1c[nH]c2ccccc12)N1CCC(C(N)=O)CC1 (centres undefined)
    14% | 5%
- CN(Cc1nc2ccsc2c(=O)[nH]1)C(=O)c1cnn(-c2ccc(Cl)cc2)c1
    35%[activator] | -5%
- CC(C)c1ccc(/C=C/C(=O)N2CCN(C/C=C/c3ccccc3)CC2)cc1
    0% | -1%
- Cc1cc(C)c(C)c(S(=O)(=O)NCCC(=O)Nc2nccs2)c1C
    20% | 195%[activator]
- Cc1ccccc1/[N+]([O-])=C/c1ccco1
    -4% | -4%
- CN1CCN(S(=O)(=O)c2ccc(SCc3cc(Cl)c4c(c3)OCCO4)nc2)CC1
    ? | ?
- O=C(c1ccc2c(c1)N(Cc1ccccc1)C(=O)c1ccccc1S2(=O)=O)N1CCOCC1
    14% | 0%
- COc1cccc(OC)c1C(=O)OCc1ccccc1Br
    18% | 181%[activator]
- O=C(NCc1ccccc1)c1nc(Cc2c[nH]c3ccccc23)no1
    24% | 15%
- COc1ccc(Nc2cc(C(=O)NC3CCC(C)CC3)c3ccccc3n2)cc1OC (centres undefined)
    96%[activator] | -8%
- CCn1nc(C(=O)N(Cc2ccccc2)c2c(N)n(CCOC)c(=O)[nH]c2=O)c2ccccc2c1=O
    -8% | 0%
- COc1ccc(OC)c(CNC(=O)c2cc3cc4ccc(OC)cc4nc3o2)c1
    -17% | -5%

(further entries)
Below each SMILES – StopGo FLuc | StopGo RLuc
- COc1ccc2oc(=O)c(C(=O)N3CCN(c4ccccc4C)CC3)cc2c1
    196%[activator] | 5%
- NC(=S)NNC(=S)NCc1ccccc1
    -5% | 7%
- O=c1oc2ccccc2c(NC2CCCCC2)c1NS(=O)(=O)c1ccc(Br)s1
    -12% | 56%[activator]
- Cc1cc(SCC(=O)N2CCOCC2)nc2c(C)cccc12
    9% | 0%
- CCOc1ccc(NC(=O)Cn2cc(C(=O)c3ccc(CC)cc3)c(=O)c3ccc(C)nc32)cc1
    -6% | -6%
- Cc1ccc2c(CN3CCOCC3)cc(=O)oc2c1
    21% | 1%
- O=C(CCC(=O)N1CCN(c2ccccc2)CC1)N1CCOCC1
    3% | 5%
- CC(C)(C)C(=O)Cn1c(=O)n(-c2ccc(Cl)cc2)c(=O)c2c3c(sc21)CCCC3
    -11% | 0%
- COc1ccc(C(=O)Oc2ccccc2-c2ccccc2)cc1Br
    0% | 3%
